Screens as filed in PubChem.
CapD inh – Bacillus anthracis CapD inhibitors, primary screen, biochemical, fluorescence intensity; 0.23% of 140,000 active; purified CapD enzyme, fluorescence intensity read-out; active compounds read low; some hits fall short of the stated cut; CapD gamma-glutamyltranspeptidase (Bacillus anthracis Ames Ancestor); z-score (test concentration not listed);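 active means z-score under -4 in either of two replicates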;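 further: stock transfer was 100 nL into about 40 µL; score is relative to mean and spread of the plate; one replicate is shown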
AID504770 – growth inhibition of E. coli YBA685, primary screen, V. cholerae RctB inhibitors; E. coli YBA685 rctB-dependent plasmid, OD600 growth, 3 h; active compounds read low; 0.27% of 130,000 active; z-score (concentration not given with the values);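 active means z-score under -2 on both plates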;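 further: wells of about 30 µL received 100 nL stock; score is relative to mean and SD of the test wells; the first replicate is given; strong numbers were not always called active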
Starred values were filed as active, the others as inactive; · = no result given. Compounds as they come; about 0.39% have a hit in one of these screens.

Below each SMILES – CapD inh | AID504770
> C=CCNc1nc2c(C)cccn2c(=O)c1/C=C1\SC(=S)NC1=O
    -0.135 | -0.35
> COc1ccc(-n2cc(C(=O)NCCc3c[nH]c4ccccc34)nn2)cc1
    0.26 | 0.65
> Fc1ccc(Nc2nnc(-c3ccccc3Cl)s2)cc1
    47.5 | ·
> COc1ccc([N+](=O)[O-])cc1-c1[nH]c(-c2cccc(OC)c2OC)nc1-c1ccccc1
    -1.22 | ·
> CCCCSc1nnc2c(n1)OC(/C=C/c1ccc([N+](=O)[O-])o1)Nc1ccccc1-2 (configuration not stated)
    0.825 | ·
> CSC(=NC#N)/N=c1/nc(SC)n(C)n1C
    1.1 | 0.5
> CC(C)NS(=O)(=O)c1ccc(NC(=O)c2ccccn2)cc1
    -0.27 | 0.15
> FC(F)(F)c1ccc(-c2nnc(-c3ccc4nccnc4c3)o2)cc1
    -0.64 | 0.6
> CS(=O)(=O)c1ccc2c(c1)sc1nc(-c3ccccc3Cl)cn12
    · | 1.4
> C=CCNC(=S)N/N=C1\CC2CC=CC12 (configuration not stated)
    · | 0.65
> O=C(Cc1coc(-c2ccc(F)cc2)n1)N1CCOCC1
    0.185 | -1.2
> COCCCNC(=O)c1oc2ccccc2c1C
    -0.045 | ·
> O=C(CC12CC3CC(CC(C3)C1)C2)NCC(=O)Nc1cccnc1
    · | -0.5
> COc1cccc(C=Nc2c(C)n(C)n(-c3ccccc3)c2=O)c1OCC#N
    0.375 | ·
> CC1(C(=O)Nc2cccc(Br)c2)CC(=O)N=C2C=CC=CN21 (configuration not stated)
    70 | 0.05
> CCOc1ccccc1C(=O)N=C1NC(=O)CS1
    · | -0.25
> COc1cccc(C2SCC(=O)N2c2ccc(Br)cc2)c1OC (configuration not stated)
    0 | ·
> COC(=O)c1cc(-c2ccc(Cl)cc2)n[nH]1
    0.09 | -0.65
> Clc1ccc(CSCc2cc(Cl)nc(-c3ccccc3)n2)cc1
    -0.155 | ·
> O=C(COC(=O)C1CCCCN1S(=O)(=O)c1ccccc1)Nc1ccccc1C(=O)NC1CC1 (configuration not stated)
    · | -0.25
> CCN(CC)C(=O)CSc1nc(O)cc(=O)n1-c1ccc(OC)cc1
    0.575 | -1.25
> Cc1ccnc(Sc2ccc(N)cc2)n1
    -0.38 | ·
> CC(C)(C)n1ncc(C#N)c1N
    0.24 | -3.7
> CC(C)(C)c1csc(NC(=O)C2=COCCO2)n1
    -0.525 | -0.65
> CCOc1ccccc1NC(=O)CCCN1C(=O)/C(=C\c2ccco2)SC1=S
    -0.33 | -0.2
> O=C(CSc1ncccn1)c1ccc(C2CCCCC2)cc1
    -0.55 | 0
> CCC(CO)n1c(SCn2nnc3ccccc3c2=O)nc2cc(OC)c(OC)cc2c1=O (configuration not stated)
    · | -1.4
> CCCCSC1=NC(C)(C)Nc2ccccc21
    1.43 | -0.55
> COc1ccc(C2CC(C(F)(F)F)n3nc(C(=O)Nc4ccc5c(c4)OCO5)c(Cl)c3N2)cc1OC (configuration not stated)
    0.365 | ·
> CCOC(=O)Cn1c(=O)oc2cc(S(=O)(=O)NCc3ccccc3)ccc21
    -0.88 | -0.9

The list continues:
Below each SMILES – CapD inh | AID504770
> CN(CC(=O)Nc1cccc2ccccc12)C(=O)C1=COCCO1
    · | 1.3
> COc1ccc(C2=N/C(=C\C=C\c3ccccc3)C(=O)O2)c(Br)c1
    -0.435 | ·
> COc1ccc(C2CCCCCN2C(=O)Cc2noc3ccccc23)cc1 (configuration not stated)
    · | -0.3
> COc1cc(OC)cc(N2CCN(S(=O)(=O)c3ccc(F)cc3F)CC2)c1
    0.59 | ·
> CCC(C)NC(=O)CSc1nc2ccccc2c(=O)n1CC1CCCO1 (configuration not stated)
    -0.185 | -0.95
> CC(=O)Nc1ccc(C(=O)Nc2ccc(S(C)(=O)=O)cc2)cc1
    · | 0.5
> CCC(Cc1ccccc1)NC(=O)c1c[nH]c2ccc(S(=O)(=O)N3CCC(C)CC3)cc2c1=O (configuration not stated)
    0.995 | -0.3
> CSc1ncc(C(=O)NN2C(=O)c3c(C(C)C)nc4ccc(Cl)cc4c3C2=O)n1C
    -0.65 | ·
> Nn1c(SCCOc2ccccc2)nnc1-c1ccccc1
    · | 1.05
> COC(=O)c1cc(NC(=O)c2cc3cc(Br)ccc3oc2=O)cc(C(=O)OC)c1
    0.11 | ·
> O=C(CN1C(=O)C2(OCCO2)c2ccccc21)c1ccc(Cl)cc1
    -0.2 | ·
> CCc1cc(=O)oc2c(C)c3c(cc12)CN(Cc1ccccc1)CO3
    42.1 | 0.05
> Cc1nc(N2CCOCC2)c2c(C)c(C(=O)Nc3ccccc3F)sc2n1
    0.37 | ·
> O=S(=O)(c1ccc(-c2ccno2)s1)N1CCCC1
    0.445 | -0.45
> CCn1c(-c2nc3ccccc3n2CC)nc2ccccc21
    45 | 2.35
> CC1=NN(C(=O)C(C)C)C(O)(C(F)(F)F)C1 (configuration not stated)
    -0.18 | -0.05
> Cc1ccc(-c2cc(C(F)(F)F)n3nc(C(=O)N4CCN(c5ccccc5)CC4)cc3n2)cc1
    0.44 | 1.45
> COCCn1c(C)cc(O)c(C(c2ccncc2)N2CCCCC2)c1=O (configuration not stated)
    · | -0.1
> Cc1ccc(C)c(N=Cc2ccc(C#N)cc2)c1
    -0.23 | -0.35
> COCCN1CN(S(=O)(=O)c2ccccc2)c2nc3ccccc3nc21
    · | 1.1
> CCOC(=O)c1[nH]cnc1C(=O)N1CCOCC1
    · | -0.7
> COc1ccc(CC(C(=O)Nc2ccccc2)C(C)C(=O)O)cc1 (configuration not stated)
    0.455 | 0.1
> Cc1cccc(N(C)S(=O)(=O)c2cccc3nsnc23)c1
    0.06 | ·
> CC(=O)Nc1nccc(-c2cc(-c3cccc(C(F)(F)F)c3)no2)n1
    10.3 | 0.05
> COC(=O)c1cc(S(=O)(=O)NCC2CCN(CCc3cccs3)CC2)cn1C
    0.3 | -1.05
> Cc1c(C(=O)N2CCN(Cc3nc4ccccc4s3)CC2)oc2ccccc12
    · | -1.05
> CC(C)C(NS(=O)(=O)c1ccccc1)C(C)C
    · | -0.8
> CC1(C)CC(=O)C2=C(C1)NC(=S)NC2C1CCCCC1 (configuration not stated)
    · | -1.35
> Cc1cc(=O)n2[nH]c(-c3sc4ccc(Cl)cc4c3C)cc2n1
    0.25 | 0
> CCN(CC)S(=O)(=O)c1cccc(C(=O)N2CCc3ccccc3C2)c1
    1.16 | 0.2

A run of entries from the list above:
Below each SMILES – CapD inh | AID504770
> CC(C)C(NS(=O)(=O)c1ccccc1)C(C)C
    · | -0.8
> CC1(C)CC(=O)C2=C(C1)NC(=S)NC2C1CCCCC1 (configuration not stated)
    · | -1.35

Record cards, from the list above. Order of values: CapD inh, AID504770
COc1ccc([N+](=O)[O-])cc1-c1[nH]c(-c2cccc(OC)c2OC)nc1-c1ccccc1 in the list: -1.22, ·
COC(=O)c1cc(-c2ccc(Cl)cc2)n[nH]1 in the list: 0.09, -0.65
COc1ccc(C2CC(C(F)(F)F)n3nc(C(=O)Nc4ccc5c(c4)OCO5)c(Cl)c3N2)cc1OC (configuration not stated) in the list: 0.365, ·
CC(C)C(NS(=O)(=O)c1ccccc1)C(C)C in the list: ·, -0.8
O=C(CN1C(=O)C2(OCCO2)c2ccccc21)c1ccc(Cl)cc1 in the list: -0.2, ·

(next part)
Below each SMILES – CapD inh | AID504770
> CC1CC(C)CN(C(=O)CSC2=NCCS2)C1 (configuration not stated)
    · | -0.2
> O=C1c2ccccc2NC2(C(=O)N(Cc3ccccc3Cl)c3ccccc32)N1CCc1ccccc1 (configuration not stated)
    1.03 | ·
> O=c1cccc2n1CC1CC2CN(C(=S)NCCc2ccccc2)C1 (configuration not stated)
    -0.265 | ·
> O=C(Nc1ccc2oc(-c3cc(I)ccc3Cl)nc2c1)c1ncn[nH]1
    4.02 | -0.05
> O=C(NNC(=O)c1ccncc1)OCCSCc1ccc2nonc2c1
    -1.04 | ·
> c1cncc(Nc2nc(-c3cccs3)cs2)c1
    -1.01 | 1.05
> O=C(NCCN1CCN(c2cccc(Cl)c2)CC1)C1c2ccccc2C(=O)N2CCc3ccccc3C12 (configuration not stated)
    -0.09 | -0.6
> O=C(NCCC1=CCCCC1)c1cccc2c1C(=O)N(C1CCCCC1)C2
    -0.855 | 1.9
> CC(=O)Nc1cc2c3c(c1)CCC(=O)N3CCC2
    · | -0.8
> CCc1nnc(NC(=O)c2ccc(N3C(=O)C4C5C=CC(C5)C4C3=O)cc2)s1 (configuration not stated)
    -0.845 | -0.35
> COc1cc(/C=N/NC(=S)NCCc2ccccc2)cc(OC)c1OC
    -1.02 | ·
> Cc1ccccc1-n1ccc(=O)[nH]c1=O
    0.86 | 0.85
> O=C(Nc1ccccc1)N1CCn2c1nc1ccccc12
    0.18 | 1.15
> Cc1cc(-c2ccc(S(=O)(=O)N3CCCCC3)s2)on1
    -0.045 | -0.45
> CN1N=C2c3ccccc3CCC2C1c1ccc(C#N)cc1 (configuration not stated)
    0.08 | -0.15
> CNS(=O)(=O)c1cc(-c2nnc(Nc3ccc4c(c3)OCO4)c3ccccc23)ccc1C
    -0.295 | -0.05
> CN1CCN(CC(C)(C)N)CC1
    · | 0.3
> Clc1ccc2c(c1)NC(c1ccc3c(c1)OCO3)O2 (configuration not stated)
    -0.05 | -0.8
> CN1C(=C2C(=O)NC(=O)NC2=O)Sc2ccccc21
    · | -1.25
> COc1cc(C)c(/C=N/NC(=O)CS(=O)(=O)c2ccc(C(F)(F)F)cn2)cc1C
    -0.78 | ·
> Cc1cc(C)c2c(n1)sc1c(Cl)ncnc12
    · | 1.75
> O=C(CN1C(=O)c2ccccc2S1(=O)=O)N1CCCCCC1
    0.1 | ·
> CC(C(=O)O)c1ccc2c(c1)[nH]c1ccc(Cl)cc12 (configuration not stated)
    · | 0.15
> NN(Cc1ccccc1)c1ccccc1
    -1.05 | -0.8
> OP(=S)(c1ccncc1)c1ccncc1
    · | -0.35
> CCOCCOC(=O)C1=C(C)NC2=C(C(=O)CC(c3ccc(Cl)cc3)C2)C1c1ccc(OC)cc1OC (configuration not stated)
    18.9 | ·
> O=C1CCC(OC(=O)c2ccccc2)CC1
    -0.955 | 1.6
> CN(C)C(CNC(=O)c1ccc2c(c1)OCO2)c1ccco1 (configuration not stated)
    · | 2
> N#CCCC(C#N)(CCC#N)c1ccccc1
    -0.42 | ·
> COCC(=O)NC1(c2nnnn2CCOC(=O)Nc2ccc(Cl)cc2)CCCC1
    -0.035 | ·

Part of the list above, bar-delimited.
Structure | CapD inh | AID504770
Cc1cc(C)c2c(n1)sc1c(Cl)ncnc12 | · | 1.75
O=C(CN1C(=O)c2ccccc2S1(=O)=O)N1CCCCCC1 | 0.1 | ·
CC(C(=O)O)c1ccc2c(c1)[nH]c1ccc(Cl)cc12 (configuration not stated) | · | 0.15
NN(Cc1ccccc1)c1ccccc1 | -1.05 | -0.8

Additional results follow.
Below each SMILES – CapD inh | AID504770
> CS(=O)(=O)c1ccc(CN(Cc2cccc(C(F)(F)F)c2)C(=O)c2cc(Cl)nc(Cl)c2)cc1
    -0.55 | ·
> Cc1nc(C)c(-c2ccn(C(=O)c3ccc(Cl)cc3)n2)o1
    -0.04 | -0.15
> O=C1C2C3c4ccccc4C(c4ccccc43)C2C(=O)N1c1ccc(Cl)c(Cl)c1 (configuration not stated)
    -0.49 | ·
> CCc1ccccc1NC(=O)N1CCC(NC(=O)C(C)(C)C)CC1
    · | -1.3
> CCn1ncc(NC(=S)NCc2ccco2)c1C(N)=O
    -0.19 | -0.45
> Cc1cccc(NC(=O)CCCOc2ccc(Cl)cc2Cl)n1
    0.17 | -0.8
> CCCC(=O)NCc1nc2ccccc2n1C(C)c1ccccc1 (configuration not stated)
    0.16 | 0.25
> O=C(NC1CC1)c1cc(OCC(F)(F)F)ccc1OCC(F)(F)F
    -0.105 | ·
> Cc1ccc(C(=O)n2c(=S)sc3ccccc32)cc1
    -0.235 | -0.9
> CSc1nnc2c(n1)OC(c1c(Cl)cccc1Cl)Nc1ccccc1-2 (configuration not stated)
    -0.17 | ·
> FC(F)(F)c1cc(-c2ccccc2)nc(N2CCN(c3ccccc3)CC2)n1
    0.17 | ·
> COc1ccc(NC(=O)CN(C)C2CCS(=O)(=O)C2)cc1 (configuration not stated)
    · | -0.8
> Cc1ccc(S(=O)(=O)N2CCC(On3nnc4ccccc43)CC2)cc1
    0.04 | -0.3
> Cc1ccc(-n2nnc(C(=O)N3CCCCC3)c2N)cc1
    · | -0.55
> Cc1csc(Nc2ccccc2)n1
    -0.22 | -0.85
> Cn1cc(-c2ccccc2)c(C(F)(F)F)n1
    0.59 | 0.5
> CC(=O)Nc1sc2c(c1CN1CCN(S(=O)(=O)c3ccccc3)CC1)CCCC2
    · | 0.15
> N#C/C(=C(/O)CSc1nc2ccccc2o1)c1nc2ccccc2[nH]1
    · | 0.2
> CC1(C)CC(=O)C2=C(C1)OC(N)=C(C(=O)OC(C)(C)C)C21C(=O)Nc2ccccc21 (configuration not stated)
    0.36 | -0.05
> CCN(CC)Cn1cnc2c(SC)ncnc21
    -0.57 | -0.9
> O=C1CCC(C(=O)NC(c2ccccc2)c2ccccc2)=NN1
    · | 0.4
> Cc1ccsc1C(=O)OCC(=O)NCc1ccccc1
    0.035 | -0.4
> O=S(=O)(n1nccc1-c1sccc1Cl)C(F)(F)F
    -1.06 | 0.85
> CC1CCCCN1C(=O)Cn1c(=O)cnc2ccccc21 (configuration not stated)
    · | 0.2
> Cc1ccc(N2C3=[N+](CCCCC3)CC2(O)c2ccccc2)cc1 (configuration not stated)
    -0.915 | ·
> COC(=O)COc1ccc(/C=C2\C(=O)NC(=O)N(c3ccc(Br)cc3)C2=O)cc1OC
    -0.385 | ·
> O=S(=O)(NC1CCCCCC1)c1ccc(F)c(F)c1
    0.215 | 0.95
> COc1cc(/C=C2\N=C(c3c(-c4ccccc4)noc3C)OC2=O)ccc1OC(C)=O
    1.25 | ·
> CCN(C(=O)CS(=O)(=O)c1ccccc1)c1ccccc1C
    -0.43 | -0.8
